VDR inh: inhibitors of human vitamin D receptor; AID 504847; P11473; 400,000 compounds, 0.93% hits; Potency, µM, for the others: max response, negative = inhibition, usual class: inhibitors; VDR-SRC2-3 peptide fluorescence polarization, 2 h; active = well fitted inhibition curve with a large enough effect; inconclusive = small, poorly fitted or top-dose-only effect, or another doubt; inactive = no such curve, though single readings can be large or run the other way; note: series mostly up to about 120 µM
Target sequence (P11473 whole entry, looked up): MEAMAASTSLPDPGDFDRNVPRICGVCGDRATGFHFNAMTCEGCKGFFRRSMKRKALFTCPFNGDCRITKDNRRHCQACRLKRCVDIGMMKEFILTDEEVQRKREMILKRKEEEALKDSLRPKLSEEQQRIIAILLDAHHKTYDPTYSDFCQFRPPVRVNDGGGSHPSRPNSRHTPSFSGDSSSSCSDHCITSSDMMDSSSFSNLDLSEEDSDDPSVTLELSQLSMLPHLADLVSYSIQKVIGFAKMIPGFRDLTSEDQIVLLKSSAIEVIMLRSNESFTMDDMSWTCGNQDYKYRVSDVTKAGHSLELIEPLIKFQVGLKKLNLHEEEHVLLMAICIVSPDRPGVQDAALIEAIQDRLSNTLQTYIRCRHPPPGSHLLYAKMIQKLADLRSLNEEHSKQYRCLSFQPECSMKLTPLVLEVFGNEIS
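Fluorescence polarization assay measuring small-molecule disruption of VDR binding to the coregulator peptide SRC2-3. Compounds were pin-transferred (23 nl) into the reagent mix and incubated 2 h at room temperature before reading.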
Active calls of the source: *; ? = inconclusive; & = joins results of further samples. % is set by controls: 0 for no effect and ±100 for the full control effect; potency is the fitted concentration of half-maximal effect. A portion of the library; the hit share may differ from the screen's.

SMILES	VDR inh
CCCOc1ccc(/C=C2\SC(N)=NC2=O)cc1OC	-5%
CCc1ccc(C)[n+](CC(=O)c2cccs2)c1	-18%
O=C(COc1ccc(Cl)cc1Cl)Nc1ccccn1	0%
Cc1cc(C)cc(COc2ccc3c(C)c(CC(=O)O)c(=O)oc3c2C)c1	-4%
Cc1cc(C)c(NC(=O)C(C)n2c(=O)cc(-c3ccccc3)c3c(C)nn(C)c32)c(C)c1 (configuration not stated)	16%
O=C1CCCC(O)=C1C=Nc1ccc(O)cc1	6%
O=C(Nc1nnc(CCN2CCCCC2)s1)c1ccccc1	-13%
CCC1CCCCN1S(=O)(=O)c1ccc(NC(=O)C2CCCO2)cc1 (configuration not stated)	-3%
Cc1noc(C)c1-c1ccc2ncnc(NC3CCNCC3)c2c1	45µM*
CCOCCn1c(-c2ccccc2)nc2ccccc21	-15%
O=C1C=C(c2cccc(O)c2)C[C@@H](c2ccc(F)cc2)C1	-18%
O=C(NC1CCSc2ccccc21)c1ccccc1Cl (configuration not stated)	-14%
COC(=O)c1sccc1NC(=O)c1ccc(C#N)cc1	25%
CCCCCCNCc1ccc(Br)cc1	9%
O=C(Cn1cc(S(=O)(=O)Cc2ccccc2Cl)c2ccccc21)Nc1cccc(C(F)(F)F)c1	12%
COc1ccc(NC(=O)c2ccc(NC(=O)C(C)C)cc2)c([N+](=O)[O-])c1	0%
CC(C)NC(=O)C(c1ccc(F)cc1)N(C(=O)CCC(=O)Nc1ccccn1)C1CCCC1 (configuration not stated)	-7%
CN(CCn1ccnc1)Cc1cn(Cc2ccccc2)nc1-c1ccc2c(c1)OCO2	-12%
CC(=O)Nc1ccc(S(=O)(=O)N(CC(=O)NC2CC2)Cc2ccccc2)cc1	18%
CC(C)NC(=O)C(OC(=O)c1ccccc1)C(OC(=O)c1ccccc1)C(=O)O (configuration not stated)	-13%
COc1ccc(-c2nc(N)ncc2-c2csc(C)n2)c(O)c1OC	17%
CN(Cc1ccccc1)c1ccc(N2C(=O)CCCC2=O)cc1[N+](=O)[O-]	-19%
CN(Cc1cccc(F)c1)C(=O)CNS(=O)(=O)c1ccc2ccccc2c1	-15%
C[C@H]1CC[C@]2(O[C@@H](CCO)C[C@@H](O)[C@@H]2O)O1	-14%
COc1ccccc1OCCn1c(=O)oc2ccc(C)cc21	4%

Remaining list, next part:
SMILES	VDR inh
CCC(CC)C(=O)Nc1nnc(S(=O)(=O)N(C)c2cc(C)cc(C)c2)s1	-10%
Cn1c(=S)sc2ccc3ccccc3c21	-11%
CC(C)c1ccc(N2C(=O)CSC23C(=O)N(Cc2ccccc2)c2ccccc23)cc1 (configuration not stated)	-2%
O=S(=O)(NC12CC3CC(CC(C3)C1)C2)c1ccc(F)cc1	26%
COc1cc(-c2ccc3oc(-c4ccsc4)cc(=O)c3c2)cc(OC)c1OC	23%
Cc1nn(C(=O)COc2ccccc2)c(C)c1Sc1ccccc1	2%
N/C(=N\OC(=O)CCCOc1ccc(Cl)cc1Cl)c1ccncc1	-14%
O=C1Cn2c(nc3ccccc32)N1c1ccccc1F	-16%
c1cc2ccc3ccc(-n4cnnn4)c4ccc(c1)c2c34	-10%
COc1ccccc1OCCn1cc(C(=O)c2ccco2)c2ccccc21	-1%
Cc1ccc(Nc2c(-c3ccc(N(C)C)cc3)nc3ncccn23)cc1	-18%
CCN(CC)S(=O)(=O)c1ccc(N2CCOCC2)c(NC(=O)c2cc(-c3ccccn3)nc3ccccc23)c1	-2%
COc1ccc(CCN=C(NS(=O)(=O)c2ccccc2)c2ccccc2)cc1OC	7%
CSc1ccc(/C=C2\NC(=O)NC2=O)cc1	-25%
NC(=S)N=Nc1c(O)n(Cc2ccc(Br)cc2)c2ccccc12	-13%
CC(C#Cc1c([C@@H](C)Oc2ccccc2)nnn1Cc1ccccc1)Oc1ccccc1 (some centres not stated)	-6%
CSC1=NCCN1C(=O)c1cccc(Br)c1	4%
CCOC(=O)C1C(c2ccccc2O)NC(=O)NC1(O)C(F)(F)F (configuration not stated)	-22%
CSc1nnc(NC(=O)c2nc(S(=O)(=O)Cc3ccccc3)ncc2Cl)s1	?
Cc1csc(NC(=O)C(C)N2C(=O)c3ccccc3S2(=O)=O)n1 (configuration not stated)	0%
Cn1ncc([N+](=O)[O-])c1C(=O)Nc1nccs1	-3%
COc1ccc([C@@H]2[C@@H]3C(=O)N(C(C)(C)C)C(=O)[C@@H]3[C@]3(Cc4ccccc4)C(=O)N(c4cccc(Cl)c4)C(=O)N23)cc1	8%
CC(C)NC(=O)CN(Cc1ccc(F)cc1)C(=O)CCC(=O)Nc1nccs1	-7%
CCc1nc2nc(C)c(NS(=O)(=O)c3ccc(Br)s3)c(=O)n2[nH]1	-5%
COc1ccc(-c2[nH]ncc2CN2CCSCC2)c(OC)c1	0%

More compounds follow.
SMILES	VDR inh
Cc1ccc(C(=O)CS(C)(=O)=O)cc1	7%
COc1cccc(OC)c1OCCCCc1c(C)n[nH]c1C	-1%
Cc1cccc(C(=O)Nc2ccccc2-c2nc(-c3ccccc3)no2)c1	6%
O=C1N/C(=N\S(=O)(=O)Cc2ccccc2)S/C1=C/c1cccc([N+](=O)[O-])c1	?
Cc1cccnc1NC(=O)CN1C(=O)COc2ccc(Cl)cc21	-5%
Cn1c(=O)oc2cc(S(=O)(=O)N3CCN(Cc4ccc5c(c4)OCO5)CC3)ccc21	0%
CC1Oc2ccccc2C=C1/C=N\NC(=O)c1cccnc1 (configuration not stated)	12%
Cc1nn(Cc2ccccc2Cl)c(Cl)c1/C=C/C(=O)OCC(=O)NC1CCS(=O)(=O)C1 (configuration not stated)	9%
Cc1ccc(S(=O)(=O)Nc2c(C)nn(C)c2C)cc1C	2%
COc1ccc(Cn2c(=O)c3oc4ccccc4c3n(Cc3cccc(C(F)(F)F)c3)c2=O)cc1	-4%
O=C(CN1CCC(n2nnc3cc(F)ccc32)CC1)NNC(=O)c1ccccc1	-1%
COC(=O)C1=C(C)OC(N)=C(C#N)C1c1ccccc1F (configuration not stated)	?
COc1cc(CCC(=O)OCC(=O)Nc2cccc(S(N)(=O)=O)c2)cc(OC)c1OC	-12%
Fc1ccc(-n2nnc(-c3ccccc3Br)n2)cc1	3%
Cc1ccc2nc(-c3sc4nc(C)ccc4c3N)[nH]c2c1	0%
COc1ccc(N2C(=O)CCC(C(=O)NCCCN3CCC(C)CC3)C2c2ccc(OC)c(OC)c2)cc1 (configuration not stated)	14%
CC(=O)c1sc(N/N=C\c2ccc(N(C)C)cc2)nc1C	8%
COc1ccc(/C=C/C(=O)OCC(=O)Nc2ccc(OC)c(S(=O)(=O)N3CCCCC3)c2)cc1	-16%
CCCCC[C@H](O)/C=C/[C@H]1C(=O)C[C@H](O)[C@@H]1C/C=C\CCCC(=O)O	3%&3%
O=C(O/N=C1\CCS(=O)(=O)c2sccc21)c1ccccc1	8%
CN(C)c1ccc(/C=N/n2c(C3CCCCC3)n[nH]c2=S)cc1	3%
NC(=NCc1ccco1)NC(=O)c1ccccc1	-2%
CC(C)(C)C1CCc2onc(C(=O)Nc3cccnc3)c2C1 (configuration not stated)	9%
COC(=O)CCC(=O)Nc1sc2c(c1C#N)CCCC2	4%
COc1nc2ccccc2nc1CCC(=O)O	-6%

(continued)
SMILES	VDR inh
CN(C)S(=O)(=O)N1C(=O)c2ccccc2C1=O	-4%
N#Cc1nc(-c2ccco2)oc1N1CCN(c2ccccc2)CC1	5%
CCN(CC)CCN(C(=O)CCOc1ccccc1)c1nc2ccc(F)cc2s1	-18%
CC(=O)c1sc(NC(=O)c2cccc(C)c2)nc1C	-17%
COCCNCC(=O)NC12CC3CC(CC(C3)C1)C2	-1%
COc1cc(N=c2ssnc2Cl)cc(OC)c1OC	?
Cc1nnc(Nc2ccccc2)n(N)c1=O	3%
CCC(=O)c1ccc(OCC(=O)NCCc2ccccn2)cc1	-8%
CCOc1ccccc1NC(=O)c1ccc(F)c(S(=O)(=O)NCc2ccc3c(c2)OCO3)c1	0%
COc1ccc(S(=O)(=O)N2CCOCC2)cc1NC(=O)/C=C/c1ccc(F)cc1	-5%
CCc1ccc(NC(=O)CSc2nc(-c3ccccc3Cl)nc3c2Cc2c(CO)cnc(C)c2O3)cc1	1%
CCC(NC(=O)c1cc(COc2ccc(F)cc2Cl)on1)c1ccncc1 (configuration not stated)	21%
CCOC(=O)C1(Cc2ccccc2Cl)CCN(C(=O)c2cnccn2)CC1	-10%
O=C(Nc1ccc(Cl)cc1F)C1CC(=O)N(Cc2ccco2)C1 (configuration not stated)	?
CC1(C)CSC(=NCc2ccccc2)N1C(=O)c1cccc([N+](=O)[O-])c1	-5%
CC(=O)c1cnn(-c2cc(Oc3ccc(F)cc3)ncn2)c1C	15%
Cc1ccc(C(c2sc3nc(-c4ccco4)nn3c2O)N2CCCCC2)cc1 (configuration not stated)	-2%
O=C(CNCC1CCCO1)Nc1ccccc1-n1cccc1 (configuration not stated)	7%
COc1ccc(-n2nc(C(=O)NCC(=O)N3CCCCCC3)c3ccccc3c2=O)cc1Cl	2%
O=C1NCCN(Cc2cccc(Oc3ccccc3)c2)C1CC(=O)N1CCCO1 (configuration not stated)	7%
Cn1cc(NC(=O)Nc2ccc(C(F)(F)F)cc2)c(C(F)(F)F)n1	18%
CC1CCN(c2nc(-c3ccncc3)nc3ccccc23)CC1	-4%
C/C(=N/NC(=O)c1ccc(NC(=O)c2ccc(F)cc2)cc1)c1ccccc1	15%
CCCC1(C(=O)O)NC(c2cccc(OC)c2O)C2C(=O)N(c3ccccc3)C(=O)C21 (configuration not stated)	8%
Oc1cccc(C=NNc2ccccn2)c1	-14%

Other entries follow:
SMILES	VDR inh
O=C1CN(C(=O)NCC(=O)N2CCCC2)c2ccccc2N1	-11%
COc1cccc(C(=O)N2CCN(Cc3ccccc3[N+](=O)[O-])CC2)c1	-19%
Cc1cc(=O)c2ccccc2[nH]1	28%
COc1ccc(CN2CCC(n3nccc3NC(=O)c3cccc(F)c3)CC2)cc1O	-1%
C[C@@H](O)C(C(=O)N1CCNCC1)n1cc([C@@H](N)CCCCN)nn1 (some centres not stated)	-19%
CCOC(=O)c1cn(Cc2ccccc2)nn1	9%
CSc1cccc(NC(=O)c2ccccc2N(C)S(C)(=O)=O)c1	-1%
CCc1ccc2c(c1)[C@]1(C(=O)N2)[C@@H]2C(=O)N(Cc3ccccc3)C(=O)[C@@H]2[C@@H]2CCCN21	-13%
O=C(N/N=C/c1ccc(O)cc1)c1cc[n+](Cc2ccccc2)cc1	-7%
CC(C)(C)c1ccc(S(=O)(=O)NCc2ccc(C(=O)NCC3CCCO3)cc2)cc1 (configuration not stated)	4%
CCOc1ccc(S(=O)(=O)Nc2cccc(-c3ccc(OCC)nn3)c2)cc1	-5%
C[n+]1cccc(C(=O)NCC2CCCO2)c1 (configuration not stated)	5%
CC1(C(=O)NNC(=O)c2ccc(=O)oc2)CC1Br (configuration not stated)	-14%
Cc1ccc(C(=O)NNC(=O)c2csc(N3CCOCC3)n2)o1	-2%
Cc1ccc(NC(=O)CNCC(c2ccccc2)N(C)C)cc1F (configuration not stated)	2%
O=C(OCCNc1nc(-c2ccccc2)nc2ccccc12)c1ccncc1	1%
COc1cc(C(=O)ON=C2C3CC4CC(C3)CC2C4)cc(OC)c1OC	25%
Cc1ccc(-c2cc3nc(C)cc(NCc4ccco4)n3n2)cc1	9%
CC(O)c1nc2ccccc2n1CCOc1ccccc1 (configuration not stated)	9%
Cc1nc2nc(SCc3c(F)cccc3Cl)nn2c(C)c1Cc1ccccc1	-5%
N#C/C(=C\c1cn[nH]c1-c1ccc(Cl)cc1)C(=O)NCc1ccccc1	7%
CSc1ccccc1OCc1cc(C(=O)N(C)CCc2c(C)n[nH]c2C)no1	-8%
CCCn1c(SCC(=O)NNC(=O)c2ccc(OC)cc2)nnc1C(C)C	-15%
Cc1nn(C)c(C)c1NS(=O)(=O)c1c(C)n[nH]c1C	1%
CN1C2CCC1/C(=C\c1ccccc1)C(=O)/C2=C\c1ccccc1	-28%
CC1CCN(CC(=O)Nc2sc3c(c2C#N)CCC3)CC1	1%
O=[N+]([O-])c1ccccc1CCc1ccccc1[N+](=O)[O-]	11%
Cc1cc(C)n(-c2ccc(C(=O)Nc3ccccc3N3CCOCC3)cc2)n1	8%
COc1ccccc1C(=O)Nc1ccc2c(c1)n(C)c(=O)n2C	-3%
COc1cc(CN(C(=O)c2ccccc2[N+](=O)[O-])c2ccccn2)cc(OC)c1OC	10%

High-throughput results as filed in PubChem BioAssay.
